# MgcRacGAP = inhibition of MgcRacGAP-stimulated Rac1 GTP hydrolysis – biochemical, inorganic phosphate detection, orthogonal assay, confirmation (AID 652142) | MgcRacGAP/Rac1F28L GTP hydrolysis, Biomol green phosphate; hits give high values; test concentration not given here; none was called active though about 1 in 100 pass the limit | inhibition, % | 2,400 tested, under 10 active;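 active = inhibition over three standard deviations or about 65%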;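 note: full inhibition control lacks the GAP enzyme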
# Numbers without * were called inactive.
SMILES,MgcRacGAP
C=C1c2cccc(O)c2C(O)=C2C(=O)[C@]3(O)C(O)=C(C(N)=O)C(=O)[C@@H](N(C)C)[C@@H]3[C@@H](O)[C@H]12,35.5

# Assay outcomes as filed in PubChem BioAssay.

# An excerpt; rates above refer to the full screens.
